# Bioassay records from PubChem.
# Lassa entry: Lassa virus entry inhibition. Potency, µM (doses to about 49.2 µM), for the others: at the highest dose activity change, negative = inhibition, hits mostly inhibitors. Lassa virus pseudotyped entry inhibition, cell-based qHTS; control for the full effect not named in the record; many of its hits are not listed in these tables. actives 4.1% (n = 18,000). AID 720533; active = well fitted inhibition curve with a large enough effect; inconclusive = small, poorly fitted or top-dose-only effect; inactive = no such curve, though single readings can be large or run the other way; tested in HEK293 cells; further: luciferase read-out
# Marburg entry: inhibitors of Marburg virus binding or entry into cells | Marburg virus pseudotype entry/binding inhibition, cell-based; control for the full effect not named in the record; many of its hits are not listed in these tables | Potency, µM (series often up to 49.2 µM), for inactives: top-dose activity change, negative = inhibition, actives largely listed as inhibitors | actives 6.5% (n = 18,000) | AID 720532; active means well fitted inhibition curve with a large enough effect; inconclusive means small, poorly fitted or top-dose-only effect; inactive means no such curve, though single readings can be large or run the other way; tested in HEK293 cells; further: luciferase read-out
# * hit, by the source's call; u = inconclusive; x = no result given; & = joins results of further samples; [ ] = remark or other dose. On the % scale 0 is the no-effect control and ±100 the full control effect; potency means the concentration at half of the fitted maximal effect.
1: CC(C)(C)C(O)/C=C/c1ccc2c(c1)OCO2 (configuration not stated)
2: COC(=O)[C@H](COC(C)(C)C)NC(=O)O[C@@H]1C(=O)c2ccc(OC)cc2O[C@H]1c1cccc(C(F)(F)F)c1
3: O=c1cc(-c2ccc(O)cc2)oc2ccc(O)cc12
4: COc1ccc(C(=O)O[C@H]2CC[C@@]3(C)C4CCC5[C@]6(O)C[C@H](O)[C@@]7(O)C(CN8C[C@@H](C)CC[C@H]8[C@@]7(C)O)[C@]6(O)C[C@@]53O[C@@]42O)cc1OC (some centres not stated)
5: COC(=O)CC1=CO[C@@H](O)[C@@H]2C(CO)=CC[C@@H]12
6: NC(=O)CN1CC(O)CC1=O (configuration not stated)
assay / entry,1,2,3,4,5,6
Lassa entry,13%,-14%,11µM*,-3%&4%,-11%[8.59 µM],-2%
Marburg entry,31%[activator],-24%,56%[activator],u,16%[8.59 µM],22%

7: C#C[C@]1(O)CC[C@H]2[C@@H]3CCc4cc(OC5CCCC5)ccc4[C@H]3CC[C@@]21C
8: O=C(c1cccnc1)C1CCCN(Cc2ccc3c(c2)CN(C(=O)c2cccs2)CCO3)C1 (configuration not stated)
9: COc1ccc(/C=C/C(=O)c2c(OC)cc(O)cc2OC)cc1
10: CC(NC(=O)C1CCOCC1)c1nnc2n1CCN(Cc1ccc3cccnc3c1)CC2 (configuration not stated)
11: CCOC(=O)c1ncc2[nH]c3ccc(OCc4ccccc4)cc3c2c1COC
12: O=[N+]([O-])c1cccc(C2=N[C@@H](Cc3ccccc3)CO2)c1
assay / entry,7,8,9,10,11,12
Lassa entry,-20%,2%,1%,2%,u,14%
Marburg entry,13%,-13%,-3%,4%,u,-3%

13: O=[N+]([O-])c1ccc([As](=O)(O)O)cc1
14: CCCNC(=O)OC[C@H]1O[C@H](CCON=C(C)CCN2CCCc3nc(C)c(C)cc32)C=C[C@H]1Oc1ccc(OC)cc1
15: COc1cc(C(C)=O)ccc1OCCCN1CCC(c2noc3cc(F)ccc23)CC1
16: CC(=O)Nc1cc(C(=O)N2CCCC(C)C2)cc2ncn(CCc3ccccn3)c12 (configuration not stated)
17: C[C@H](CO)NS(=O)(=O)c1cc(Cl)ccc1F
18: COc1ccc(CC(N)C(=O)NC2C(O)[C@H](n3cnc4c(N(C)C)ncnc43)O[C@@H]2CO)cc1 (some centres not stated)
assay / entry,13,14,15,16,17,18
Lassa entry,-13%,28%[8.59 µM],-13%,9%,9%,4µM*
Marburg entry,-1%,u,6.3µM*,-24%,19%,4µM*

19: Cn1c(=O)c(-c2ccccc2)c(O)c2ccccc21
20: COc1cccc(-n2nc(C)c3c(NN=C(C)c4ccncc4)ncnc32)c1
21: COc1cc2oc(=O)cc(-c3ccc(-c4ccc(N(C)C)cc4)cc3)c2c(OC)c1OC
22: Cc1cccc(CNc2ccnc(-c3cccc(NS(C)(=O)=O)c3)n2)c1
23: COc1cc(CN(C2CC2)S(=O)(=O)c2ccccc2Br)cc(OC)c1
24: COc1cc(=O)n2c(c1C(=O)NCc1ccco1)CCN(C(=O)c1c(F)ccc(F)c1F)CC2
assay / entry,19,20,21,22,23,24
Lassa entry,-6%,55%[activator],u,u,x,2%
Marburg entry,1%,u,u,-24%,u,-4%

25: CC(=O)c1ccc(F)c(-c2cc(C)cc3c2OC(CNC(=O)Cc2ccc4c(c2)OCO4)C3)c1 (configuration not stated)
26: C=CC1=C2C=C(C3CC3)N(Cc3ccc4c(c3)OCO4)C=C2C(=O)C(C)(OC(=O)c2ccco2)C1=O (configuration not stated)
27: OC1(c2cccnc2)CCN(Cc2ccc3c(c2)CN(Cc2cccc(C(F)(F)F)c2)CCO3)CC1
28: Cc1cccc([C@H]2[C@@H]3C=CC[C@@H](C)[C@@H]3C(=O)N2Cc2ccccc2)c1
29: COc1cccc([C@@H]2Oc3ccc(Br)cc3C(=O)[C@@H]2OC(=O)N[C@H](C)C2CCCCC2)c1
30: COc1ccc(C(c2ccc(OC)cc2)C(Cl)(Cl)Cl)cc1
assay / entry,25,26,27,28,29,30
Lassa entry,-9%,-3%[8.59 µM],u,-9%,-14%[8.59 µM],u
Marburg entry,-3%,-5%[8.59 µM],u,-6%,-30%[8.59 µM],u

31: CC1CN(CC(=O)NCC2(N3CCOCC3)CCCC2)Cc2cc(Cl)ccc2O1 (configuration not stated)
32: CS(=O)(=O)Nc1ccc(Cc2noc(-c3ccc4[nH]cc(CCN)c4c3)n2)cc1
33: COC(=O)CCC(C)C1CCC2C3C(C[C@H](O)C12C)C1(C)CC[C@@H](O)CC1C[C@H]3O (some centres not stated)
34: CCCC[C@]12Cc3cc(C#N)ccc3[C@H](O1)c1c(cc(C)n(Cc3ccccc3)c1=O)O2
35: CCOC(=O)CNC(=O)O[C@H]1C(=O)c2cc(OC)ccc2O[C@@H]1c1ccc(OC)c(Br)c1
36: C/C=C1/C2C=C(C)CC1(N)c1ccc(=O)[nH]c1C2 (configuration not stated)
assay / entry,31,32,33,34,35,36
Lassa entry,-1%,u,-23%,-8%[8.59 µM],-3%,3%
Marburg entry,u,8%&20%,-5%,-23%[8.59 µM],-7%,19%

37: Cn1ccc2c(N3c4ccccc4CCc4ccccc43)cc3c(c21)C1CCC3C1 (configuration not stated)
38: C[C@H](NC(=O)Cc1cc(F)cc(F)c1)C(=O)N[C@@H](C(=O)OC(C)(C)C)c1ccccc1
39: CCN1C(=O)NC(c2ccco2)C(C(=O)OC)=C1C (configuration not stated)
40: OCC1(CO)COC(C(Cl)(Cl)Cl)OC1
41: O=C(NCc1nnc2n1CCN(C(=O)c1cccc(Cl)c1)CC2)C1CC1
42: COc1ccc(CNC(=O)c2cnn(-c3nccc(-c4ccco4)n3)c2C)cc1OC
assay / entry,37,38,39,40,41,42
Lassa entry,11%,-9%,-20%[8.59 µM],-18%,-1%,4%
Marburg entry,15%,u,5%[8.59 µM],7%,u,-1%

# A different layout for part of the listing above.
[38] C[C@H](NC(=O)Cc1cc(F)cc(F)c1)C(=O)N[C@@H](C(=O)OC(C)(C)C)c1ccccc1
- Lassa entry: -9%
- Marburg entry: u
[39] CCN1C(=O)NC(c2ccco2)C(C(=O)OC)=C1C (configuration not stated)
- Lassa entry: -20%[8.59 µM]
- Marburg entry: 5%[8.59 µM]
[40] OCC1(CO)COC(C(Cl)(Cl)Cl)OC1
- Lassa entry: -18%
- Marburg entry: 7%
[41] O=C(NCc1nnc2n1CCN(C(=O)c1cccc(Cl)c1)CC2)C1CC1
- Lassa entry: -1%
- Marburg entry: u

# Continuation.
43: Cc1ccc([C@H]2C[C@@H](n3cc(C4CC4)nn3)[C@H](O)CN2C(=O)C2CCCCC2)cc1
44: C[C@]12CC[C@H](O)C[C@H]1CC[C@@H]1[C@@H]2CC[C@]2(C)[C@@H](c3ccc(=O)oc3)C[C@H]3O[C@]132
45: COc1cc2cc3c4cc(OC)c(OC)cc4cc[n+]3c(C)c2cc1OC
46: COc1cccc(CN2CCCC(c3nc(-c4ccncc4)ncc3-c3ccccc3C)C2)c1O (configuration not stated)
47: Cn1c(=O)c2[nH]c(C3CCCC3)nc2n(C)c1=O
48: CCCCC(C)/C=C(C)/C=C(\C)C(=O)NC1=CC(O)(/C=C/C=C/C=C/C(=O)NC2=C(O)CCC2=O)C2OC2C1=O (configuration not stated)
assay / entry,43,44,45,46,47,48
Lassa entry,u,2.8µM*,2%,-15%,-12%&27%,7.1µM*
Marburg entry,u,2.5µM*,9%,u,20%&1%,3.2µM*

49: CN(C)CCN1CCN(C2CN(C3CCCCC3)S(=O)(=O)C2)CC1 (configuration not stated)
50: COc1cccc2c1[C@H](C=Cc1ccccc1)[C@@H]([C@H](O)COC(C)=O)OC2
51: O[C@H]1CN(CC2CCCCC2)[C@@H](c2ccccc2)C[C@H]1n1cc(C2CC2)nn1
52: CCCCC(=O)Oc1ccccc1C(=O)O
53: NCC1(CC(=O)O)CCCCC1
54: COC(=O)c1cc(CNC(=O)c2cccc(N(C)C)c2)cc(NC(=O)c2ccccc2Cl)c1
assay / entry,49,50,51,52,53,54
Lassa entry,-4%,10%[8.59 µM],-7%,7%&-12%,6%[17.8 µM],-7%
Marburg entry,19%,16%[8.59 µM],u,28%&-1%,8%[17.8 µM],-27%

55: C=C(CO[C@@H]1C=C[C@@H](c2ccccc2)O[C@@H]1CO)c1ccccc1
56: CCCCCCN1C[C@H](O)[C@@H](n2cc(-c3ccc(F)cc3)nn2)C[C@H]1c1ccc(C)cc1
57: COC(=O)c1c(C)[nH]c(C)c1C(=O)c1ccccc1Cc1ccccc1
58: COc1ccc2cc([C@H](C)C(=O)OCc3cn(CC(=O)c4ccc(O)cc4)nn3)ccc2c1
59: COc1ccccc1N(C)c1cc2c(c3c1ccn3C)C1CCC2O1 (configuration not stated)
60: COc1cc(CN2CCN(CCCSc3cc(C(C)(C)C)c(O)c(C(C)(C)C)c3)CC2)cc(OC)c1OC
assay / entry,55,56,57,58,59,60
Lassa entry,-24%[8.59 µM],u,u,x,x,20µM*
Marburg entry,-2%[8.59 µM],u,-12%&5%&9%,u,-7%,2.8µM*

61: COc1cccc(CCNc2ncnc3sc(C(=O)N4CCOCC4)c(C)c23)c1
62: [O-][n+]1cccc(CO)c1
63: CCCCC/C=C\C/C=C\CCCCCCCCCC(=O)NCCc1ccc(O)c(O)c1
64: COc1cccc(OC)c1OCCNCC1COc2ccccc2O1 (configuration not stated)
65: O=C(OCC(COC(=O)c1cccnc1)(COC(=O)c1cccnc1)COC(=O)c1cccnc1)c1cccnc1
66: COc1ccc(C2=CC3=C(Br)C(=O)C(C)(OC(=O)c4ccco4)C(=O)C3=CO2)cc1 (configuration not stated)
assay / entry,61,62,63,64,65,66
Lassa entry,0%,0%,2%,-2%&8%,-22%,0%
Marburg entry,1%,20%,-1%,-11%&-12%,7%,1%

# Random excerpt: five entries already listed
66: COc1ccc(C2=CC3=C(Br)C(=O)C(C)(OC(=O)c4ccco4)C(=O)C3=CO2)cc1 (configuration not stated)
65: O=C(OCC(COC(=O)c1cccnc1)(COC(=O)c1cccnc1)COC(=O)c1cccnc1)c1cccnc1
61: COc1cccc(CCNc2ncnc3sc(C(=O)N4CCOCC4)c(C)c23)c1
64: COc1cccc(OC)c1OCCNCC1COc2ccccc2O1 (configuration not stated)
62: [O-][n+]1cccc(CO)c1
assay / entry,66,65,61,64,62
Lassa entry,0%,-22%,0%,-2%&8%,0%
Marburg entry,1%,7%,1%,-11%&-12%,20%

# Quoted from above, four compounds:
54: COC(=O)c1cc(CNC(=O)c2cccc(N(C)C)c2)cc(NC(=O)c2ccccc2Cl)c1
55: C=C(CO[C@@H]1C=C[C@@H](c2ccccc2)O[C@@H]1CO)c1ccccc1
56: CCCCCCN1C[C@H](O)[C@@H](n2cc(-c3ccc(F)cc3)nn2)C[C@H]1c1ccc(C)cc1
57: COC(=O)c1c(C)[nH]c(C)c1C(=O)c1ccccc1Cc1ccccc1
assay / entry,54,55,56,57
Lassa entry,-7%,-24%[8.59 µM],u,u
Marburg entry,-27%,-2%[8.59 µM],u,-12%&5%&9%

# The list continues:
67: CS(=O)(=O)Nc1cc2occ(NC=O)c(=O)c2cc1Oc1ccccc1
68: OCC(O)C(O)C(O)C(O)CO (configuration not stated)
69: COC(=O)C1=C(C)N(Cc2ccccc2)C(=S)NC1CCc1ccccc1 (configuration not stated)
70: CC[C@H]1C[C@@H]2C[C@H]3c4[nH]c5ccc(OC)cc5c4CCN(C2)[C@@H]13
71: COCCN1C(=O)N[C@@H](c2ccco2)C(C(C)=O)=C1C
72: O=C(O)Cc1ccc(CCNS(=O)(=O)c2ccc(Cl)cc2)cc1
assay / entry,67,68,69,70,71,72
Lassa entry,13%,-18%,-3%[8.59 µM],-11%,6%,4%&-16%
Marburg entry,18%,u,38%[activator][8.59 µM],28µM*,-17%,9%&-17%

73: Cc1cn2cc(CNC(=O)CN3Cc4ccccc4OC(c4ccccc4F)C3)nc2s1 (configuration not stated)
74: COC(=O)C[C@H](NC(=O)[C@H](C)NC(=O)[C@@H](NC(=O)OCc1ccccc1)C(C)C)C(=O)CF
75: C=CCOC(=O)N[C@H](/C(C(=O)OC)=C(\C)NCc1ccccc1)c1cccc(C(F)(F)F)c1
76: S=C(S)N1CCCC1
77: C[C@@H]1COc2cccc(N3CCCCC3)c2S(=O)(=O)N1
assay / entry,73,74,75,76,77
Lassa entry,-20%,18%,-4%,-18%,24%
Marburg entry,-21%,-17%,14%,13%,21%

# Not all compounds are listed, so the mix of outcomes need not match the whole.
